Lassa entry inh – Lassa virus entry inhibition | Lassa virus pseudotype entry inhibition, cell reporter; control for the full effect not named in the record | Potency, µM (top dose mostly 37.9 µM), inactives show at the highest dose activity change, negative = inhibition, most hits filed as inhibitors | hit rate 1.2% among 300,000 | AID 540256; active means well fitted inhibition curve with a large enough effect; inconclusive means small, poorly fitted or top-dose-only effect, or effect the other way; inactive means flat fitted curve, though single readings scatter; tested in HEK293 cells; also: % is scaled to controls: 0 for no effect and ±100 for the full control effect; nearly all actives have a fitted effect of over 50% in size; luciferase read-out
Cruzain inh noDet – cruzain (T. cruzi) inhibition without detergent. P25779. purified cruzain, Z-FR-AMC fluorescence, no detergent. Potency, µM, for inactives: max response, negative = inhibition, hits mostly inhibitors. hit rate 2.3% among 200,000;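 also: plate controls were enzyme without inhibitor for no effect and buffer without enzyme for full effect; nearly all actives have a fitted effect of over 40% in size; top concentration of the series not given in the record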
Target sequence (P25779 123-467 limits assumed): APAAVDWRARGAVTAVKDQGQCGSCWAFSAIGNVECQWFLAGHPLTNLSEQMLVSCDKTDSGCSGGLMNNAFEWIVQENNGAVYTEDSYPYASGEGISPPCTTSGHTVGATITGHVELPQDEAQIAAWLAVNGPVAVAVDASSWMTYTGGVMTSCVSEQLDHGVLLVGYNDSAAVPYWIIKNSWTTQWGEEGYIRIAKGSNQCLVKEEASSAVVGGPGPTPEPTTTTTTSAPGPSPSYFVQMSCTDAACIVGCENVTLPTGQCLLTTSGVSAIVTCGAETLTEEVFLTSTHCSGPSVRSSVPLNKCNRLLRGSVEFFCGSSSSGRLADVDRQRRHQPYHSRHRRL
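Purified cruzain at 1.5 nM, pre-incubated 15 min with compound at room temperature in 100 mM sodium acetate pH 5.5, 5 mM DTT, 0.00005% Triton X-100. Reaction started with 2 uM Z-FR-AMC; AMC fluorescence increase over 60 s gives rate.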
MARV entry inh – Marburg virus entry inhibition; Marburg virus pseudotyped entry inhibition, cell reporter; control for the full effect not named in the record; about a third of the inactives were read at about 46 µM; Potency, µM (doses to about 37.8 µM), for the others: at the highest dose activity change, negative = inhibition, most hits filed as inhibitors; hit rate 1.8% among 300,000; active = well fitted inhibition curve with a large enough effect; inconclusive = small, poorly fitted or top-dose-only effect, or effect the other way; inactive = flat fitted curve, though single readings scatter; tested in HEK293 cells; about a fifth of its hits are not listed in these tables; also: % is scaled to controls: 0 for no effect and ±100 for the full control effect; luciferase read-out
SARS PLpro yeast – SARS-CoV PLP inhibition in yeast; Potency, µM (top dose mostly 32.9 µM), inactives show at the highest dose activity, positive = growth rescue; S. cerevisiae expressing SARS-CoV PLpro, growth rescue; control for the full effect not named in the record; AID 485353; hit rate 0.19% among 330,000; active means well fitted rising curve with a large enough effect; inconclusive means small, poorly fitted or top-dose-only effect; inactive means no such curve, though single readings can be large or run the other way; also: 0% is about no effect; nearly all actives have a fitted effect of over 55% in size; growth read by luminescence after 48 h
NS1 inh – blocks influenza NS1 protein function. S. cerevisiae slowed by influenza A NS1, growth recovery by OD600. Potency, µM (titrated, usually from 46.1 µM), inactives show top-dose activity, positive = more growth. hit rate 0.4% among 270,000; active means well fitted rising curve with a large enough effect; inconclusive means small, poorly fitted or top-dose-only effect; inactive means no such curve, though single readings can be large or run the other way; also: nearly all actives have a fitted effect of over 50% in size
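Recovery from NS1-induced slow growth read by OD600 in budding yeast switched to galactose assay medium (pH 6.0, -URA) at 1:100 dilution. Compound 23 nl per well; the matching strain lacking NS1 serves as control.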
Cruzain inh Det – blocks cruzain activity in presence of Triton detergent | P25779 | Potency, µM, for the others: max response, negative = inhibition, most hits filed as inhibitors | AID 1478 | hit rate 0.43% among 200,000 | purified cruzain, Z-FR-AMC fluorescence, 0.01% Triton;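 also: plate controls were neutral wells for no effect and buffer without enzyme for full effect; nearly all actives have a fitted effect of over 40% in size; top concentration of the series not given in the record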
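Read-out: AMC fluorescence (360 nm excitation, 450 nm emission), four reads over 2 min, first-to-third difference used. Conditions: cruzain 1.5 nM, Z-FR-AMC 2 uM, pH 5.5 acetate, 5 mM DTT, 0.01% Triton X-100.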
RE007 growth inh – less growth of the S. pombe RE007 Vpr strain; S. pombe RE007 Vpr strain, BacTiter-Glo ATP luminescence, 24 h; control for the full effect not named in the record; Potency, µM (series often up to 92.2 µM), without a hit: at the top dose activity change, negative = less growth; hit rate 0.21% among 360,000; AID 651644; active = well fitted falling curve with a large enough effect; inconclusive = small, poorly fitted or top-dose-only effect; inactive = no such curve, though single readings can be large or run the other way;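 also: % is scaled to controls: 0 for no effect and ±100 for the full control effect; nearly all actives have a fitted effect of over 50% in size; the assay follows cell death caused by Vpr and the record does not say whether a fall means rescue or toxicity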
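Fission yeast strain RE007, carrying one chromosomally integrated HIV-1 vpr copy, was seeded at OD 0.01 in PMG+AL medium with 23 nL pinned compound. After 24 h at 30 °C and 99% humidity, viability was read by BacTiter-Glo luminescence.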
2A StopGo – lowers the luciferase signal of an FMDV 2A StopGo reporter; Potency, µM (series often up to 57.9 µM), for inactives: at the top dose signal change, negative = less light; hit rate 1.2% among 410,000; human cells with a luciferase reporter of 2A StopGo recoding; control for the full effect not named in the record; AID 1159524; active = well fitted falling curve with a large enough effect; inconclusive = small, poorly fitted or top-dose-only effect; inactive = no such curve, though single readings can be large or run the other way; tested in HEK293T cells; also: % is scaled to controls: 0 for no effect and ±100 for the full control effect; nearly all actives have a fitted effect of over 45% in size; luciferase light after 4 h
* marks the source's active call; other numbers are inactive results; ? = inconclusive; nt = no result given; & = joins results of further samples; [ ] = remark or other dose. Unless noted, calls follow the shape of the dose curve; as a rule, active = well fitted curve in the direction sought with a large enough effect; inconclusive = small, poorly fitted or top-dose-only effect, or another doubt; inactive = no such curve, though single readings can be large; an effect the other way counts as inactive or inconclusive. Potency is read from the fitted curve at half-maximal effect.

SMILES | Lassa entry inh | Cruzain inh noDet | MARV entry inh | SARS PLpro yeast | NS1 inh | Cruzain inh Det | RE007 growth inh | 2A StopGo
COc1ccc(N(C(=O)COc2ccc(C)cc2)S(=O)(=O)c2ccc(C)cc2)cc1 | -12.4% | -4.1% | -21.9% | 12.9% | 14.7% | -4.8% | 0.1% | -5.5%
CCCN1CCN(C(=O)C2CCN(c3ncnc4c3nc3n4CCCCC3)CC2)CC1 | nt | nt | nt | 6.2% | -15.0% | nt | -11.9% | 0.0%
Cc1ccc(C(=O)c2coc3c2C(=O)C(=O)c2ccccc2-3)cc1 | -26.2% | 12.6µM* | ? | -39.9% | -16.0% | -1.6% | ? | nt
Cc1cc(C(=O)NC(=S)Nc2cccc(NC(=O)C(C)C)c2)ccc1[N+](=O)[O-] | -1.5% | 18.0% | -6.1% | -24.5% | -1.1% | -4.7% | -4.7% | ?
COCC(C)N=CC1=C(O)CC(C)(C)CC1=O (stereo not drawn) | -13.8% | -1.9% | 26.2% | 7.2% | 1.2% | 0.4% | 8.7% | nt
COc1ccccc1CC(=O)Nc1ccc(S(=O)(=O)N2CCN(C)CC2)cc1 | 7.6% | nt | 23.4% | -2.7% | 5.8% | nt | -14.5% | -8.7%
COc1ccc2ncc(OC(C)=O)cc2c1 | 2.6% | 7.6% | ? | -3.7% | 7.8% | -1.6% | -4.4% | 2.1%
COC(=O)c1ccc(NC(=O)Cn2c(=O)oc3ccccc32)cc1 | -0.8%[46.1 µM] | 1.3% | ? | nt | nt | -2.0% | nt | 4.3%
CN(C)c1ccc(/C=C2\C(=O)NC(=O)N(Cc3ccc(F)cc3)C2=O)cc1 | -0.5%[46.1 µM] | nt | 3.7%[46.1 µM] | -4.1% | -2.8% | nt | 27.3% | -4.2%
CCc1nn(CCCC(=O)NCc2ccc(OC(C)C)cc2)c(=O)c2cc3occc3n12 | 18.0%[46.1 µM] | ? | ? | -1.2% | -1.0% | -4.2% | 3.9% | -31.5%&12.2%
CC(C)Nc1nc(-c2cccnc2)nc(-c2ccccc2)c1C#N | nt | nt | nt | 2.3% | 3.0% | nt | 7.7% | ?
COc1ccc(/C=N/NC(=O)c2cccc(NC(=O)c3ccccc3Cl)c2)c(OC)c1 | 12.3% | nt | ? | -10.3% | nt | nt | -2.8% | 17.6%
Cc1ccc(C(=O)C2=C(O)C(=O)N(c3ncccn3)C2c2ccc(F)cc2)o1 (stereo not drawn) | 14.4% | nt | -4.8%[46.1 µM] | 0.3% | 1.1% | nt | 0.4% | 12.6%
Cc1ccc(-n2c(=O)c3oc4ccccc4c3n(Cc3cccc(F)c3)c2=O)cc1C | ? | ? | nt | nt | nt | -3.6% | nt | 3.7%
COc1ccc(-c2c(NC(=O)CC(C)C)n(C)c3ccccc3c2=O)cc1OC | nt | nt | nt | -0.7% | 14.1% | nt | -3.3% | -8.9%
O=C(COC(=O)c1cccs1)Nc1ccccc1C(F)(F)F | nt | nt | nt | -1.2% | 5.5% | nt | -14.9% | 9.0%
CCCCNC(=O)Cn1cnc2sc(C)c(S(=O)(=O)N3CCN(c4ncccn4)CC3)c2c1=O | 0.0%[46.1 µM] | nt | -17.9%[46.1 µM] | 2.2% | nt | nt | 14.5% | -17.8%
CNC(=O)c1c2c(nc3ccc(Br)cc13)CCCC2 | ? | nt | -7.5%[46.1 µM] | -9.2% | -19.9% | nt | -5.8% | -24.6%
O=C(c1ccccc1)N1CCn2c1nc1ccccc12 | nt | nt | 16.9%[46.1 µM] | 1.0% | 0.3% | nt | -10.7% | 30.3%[activator]
Cc1cc(C)c2c(n1)SCCN2C(=O)Nc1ccc(C(=O)Nc2cc(Cl)ccc2C)cc1 | -0.6%[46.1 µM] | ? | nt | nt | nt | -6.4% | nt | -9.9%
O=C(Nc1ccc(C(F)(F)F)cc1)C1(c2cccs2)CCOCC1 | -22.1%[46.1 µM] | -6.3% | nt | nt | nt | -2.9% | nt | 0.0%
O=c1cc(CN2CCN(Cc3ccccc3)CC2)c2cc(Cl)ccc2o1 | 7.9% | -7.8% | 8.2% | -1.9% | 2.8% | -3.7% | -18.9% | 2.8%
O=[N+]([O-])c1cccc(S(=O)(=O)c2ccc(NCCOCCO)c([N+](=O)[O-])c2)c1 | -11.1%[46.1 µM] | nt | -5.7%[46.1 µM] | -0.4% | -0.6% | nt | 13.5% | -25.0%
Cc1ccc(NC(=O)CN2C(=O)N/C(=C\c3cccnc3)C2=O)cc1 | -13.1% | nt | -25.0% | 3.8% | nt | nt | -3.6% | -12.7%
COc1ccc(N(CC(=O)Nc2ccccc2F)S(=O)(=O)c2ccc(C)c([N+](=O)[O-])c2)cc1 | ? | nt | ? | -2.6% | -6.6% | nt | 12.4% | -0.2%
COc1ccccc1CNC(=S)Nc1ccc2nc(N3CCN(C)CC3)cc(C)c2c1 | -8.2% | nt | ? | 0.0% | nt | nt | 6.2% | -24.3%
C=CCn1c(=O)c(C(=O)Nc2ccc(C)cn2)c(O)c2ccccc21 | nt | nt | nt | -5.0% | -4.6% | nt | -9.9% | 5.2%
CCC1=C(OC(=O)N(CC)CC)N2C(=O)OC(=NCCc3c[nH]c4ccccc34)[C@]2(Cc2ccccc2)[C@H]2C1=CC[C@H]1C(=O)N(CC(=O)OC)C(=O)[C@H]12 | nt | ? | nt | 0.2% | -5.5% | -5.1% | 2.2% | 1.3%
CCC(C)(C)NC(=O)C(c1ccc(OC)cc1)N(C(=O)CCC(=O)Nc1cc(C)on1)c1ccc(F)cc1 (stereo not drawn) | -22.6% | nt | ? | -4.5% | 11.1% | nt | 38.6% | -8.0%
CCOC(=O)C1(Cc2cccc(OC)c2)CCCN(Cc2ccc(NC(C)=O)cc2)C1 (stereo not drawn) | nt | nt | nt | 0.2% | 3.6% | nt | -15.6% | -7.9%
CC(C)c1nnc(NC(=O)COc2ccccc2[N+](=O)[O-])s1 | -26.3%[46.1 µM] | nt | ? | 0.2% | 0.3% | nt | -8.0% | 16.2%
CN(C)CCCN(C(=O)CCc1ccccc1)c1nc2ccc(Br)cc2s1 | ? | nt | ? | -4.7% | nt | nt | 7.8% | 25.1µM*
CCCCn1nnnc1NCc1ccc(N2CCCC2)cc1 | 1.3% | ? | 6.1% | -8.1% | 2.5% | -0.2% | 7.8% | -16.4%
CCO[C@H]1OC(C(=O)N2CCN(Cc3ccc4c(c3)OCO4)CC2)=C[C@@H](c2ccccc2)[C@@H]1CCCO | nt | nt | nt | -0.6% | -5.4% | nt | 3.5% | -29.0%
Cc1ccc(N2CCN(Cc3nnc(-c4ccccc4F)o3)CC2)c(C)c1 | ? | ? | 13.2%[46.1 µM] | nt | nt | -7.0% | nt | -29.8%
Cc1cccc(N(C)c2nc3ccc(C)cc3n3cnnc23)c1 | nt | -1.6% | 12.4%[46.1 µM] | nt | nt | -6.7% | nt | 5.2%
COc1ccc(C)cc1NC(=O)CSc1nnc(-c2ccc(OC)c(OC)c2)n1N | -2.2% | -9.5% | -39.7% | -7.9% | ? | 0.7% | 6.9% | -0.9%
Cc1[nH]c2ccccc2c1/C=C/c1nc2ccccc2c(=O)n1CCO | 11.2µM* | nt | ? | -0.6% | -10.0% | nt | -6.5% | -7.0%
O=[N+]([O-])c1cc(/C=N\O)ccc1Oc1ccc(F)cc1 | 18.0% | nt | -5.8% | -2.6% | -10.2% | nt | -2.2% | 7.2%
CCc1nnc(SCc2ccc(OC)c(Br)c2)n1N | 3.5% | -1.6% | ? | 2.7% | -1.2% | -0.2% | 3.5% | -6.0%
CSc1cccc(NC(=O)C2CCCN(S(=O)(=O)c3cccs3)C2)c1 (stereo not drawn) | ? | nt | ? | -1.9% | 28.8% | nt | -8.7% | -28.0%
Cc1cc(Nc2cccc(F)c2)nc(NCc2ccccc2)n1 | ? | 6.4% | ? | 7.9% | -16.6% | -7.1% | 10.8% | ?
CS(=O)(=O)N1CCc2ccccc2C1 | 5.9% | -10.0% | 4.2% | ? | 10.1% | 2.6% | 1.8% | -4.7%
COc1cc(/C=C2\SC(=O)NC2=O)ccc1OCC(=O)N1CCOCC1 | 4.4% | nt | ? | 1.7% | nt | nt | 22.9% | -6.6%
CC(C)c1ccc(NC(=O)NC2CCCCC2)cc1 | ? | 11.3% | ? | nt | -4.1% | 2.5% | 7.4% | 60.8%[activator]
CSc1ccccc1OCc1cc(C(=O)N2CCN(c3ncccn3)CC2)no1 | nt | nt | nt | 2.8% | 9.0% | nt | -0.5% | 3.2%
COc1ccc(CNCc2ccc3c(c2)OCO3)c(OC)c1OC | 0.1% | nt | -24.6% | -4.0% | -1.0% | nt | -2.0% | 4.3%
Cc1ccc(C(=O)NCC(=O)OCC(=O)c2c(N)n(C)c(=O)n(C)c2=O)s1 | -1.3% | 2.2% | -6.5% | 3.2% | -3.6% | -1.1% | 27.1% | ?
COc1ccc(N2C(=O)C(=O)/C(=C(/O)c3ccc(C)cc3)C2c2cccnc2)cc1 (stereo not drawn) | ? | -3.9% | ? | -20.5% | 7.9% | -12.2% | 7.1% | 19.6%

An excerpt from the list above, for reference:
SMILES | Lassa entry inh | Cruzain inh noDet | MARV entry inh | SARS PLpro yeast | NS1 inh | Cruzain inh Det | RE007 growth inh | 2A StopGo
CSc1cccc(NC(=O)C2CCCN(S(=O)(=O)c3cccs3)C2)c1 (stereo not drawn) | ? | nt | ? | -1.9% | 28.8% | nt | -8.7% | -28.0%
Cc1cc(Nc2cccc(F)c2)nc(NCc2ccccc2)n1 | ? | 6.4% | ? | 7.9% | -16.6% | -7.1% | 10.8% | ?
CS(=O)(=O)N1CCc2ccccc2C1 | 5.9% | -10.0% | 4.2% | ? | 10.1% | 2.6% | 1.8% | -4.7%
COc1cc(/C=C2\SC(=O)NC2=O)ccc1OCC(=O)N1CCOCC1 | 4.4% | nt | ? | 1.7% | nt | nt | 22.9% | -6.6%

Assay outcomes as filed in PubChem BioAssay.
